# Assay outcomes: PubChem, Johns Hopkins Ion Channel Center
# KCNQ2 pot: enhances the rat KCNQ2 potassium channel; O88943; CHO-K1 KCNQ2, FluxOR thallium flux fluorescence; stronger effect = higher value; B-score at 10 µM; 0.54% of 310,000 active; AID 2239;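 active means fluorescence ratio B-score at least 3 SD of library B-scores, with initial fluorescence B-score within 3 SD, cut at about 5.3 in these data; same plate scores as AID 2156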;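 further: B-score of peak minus minimum over baseline fluorescence ratio after K+ and Tl+ stimulus; positive B-score means potentiation of KCNQ2 with more thallium influx and brighter signal; only the inactives scoring about 0 or higher are listed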
# Target sequence (O88943 whole entry, looked up): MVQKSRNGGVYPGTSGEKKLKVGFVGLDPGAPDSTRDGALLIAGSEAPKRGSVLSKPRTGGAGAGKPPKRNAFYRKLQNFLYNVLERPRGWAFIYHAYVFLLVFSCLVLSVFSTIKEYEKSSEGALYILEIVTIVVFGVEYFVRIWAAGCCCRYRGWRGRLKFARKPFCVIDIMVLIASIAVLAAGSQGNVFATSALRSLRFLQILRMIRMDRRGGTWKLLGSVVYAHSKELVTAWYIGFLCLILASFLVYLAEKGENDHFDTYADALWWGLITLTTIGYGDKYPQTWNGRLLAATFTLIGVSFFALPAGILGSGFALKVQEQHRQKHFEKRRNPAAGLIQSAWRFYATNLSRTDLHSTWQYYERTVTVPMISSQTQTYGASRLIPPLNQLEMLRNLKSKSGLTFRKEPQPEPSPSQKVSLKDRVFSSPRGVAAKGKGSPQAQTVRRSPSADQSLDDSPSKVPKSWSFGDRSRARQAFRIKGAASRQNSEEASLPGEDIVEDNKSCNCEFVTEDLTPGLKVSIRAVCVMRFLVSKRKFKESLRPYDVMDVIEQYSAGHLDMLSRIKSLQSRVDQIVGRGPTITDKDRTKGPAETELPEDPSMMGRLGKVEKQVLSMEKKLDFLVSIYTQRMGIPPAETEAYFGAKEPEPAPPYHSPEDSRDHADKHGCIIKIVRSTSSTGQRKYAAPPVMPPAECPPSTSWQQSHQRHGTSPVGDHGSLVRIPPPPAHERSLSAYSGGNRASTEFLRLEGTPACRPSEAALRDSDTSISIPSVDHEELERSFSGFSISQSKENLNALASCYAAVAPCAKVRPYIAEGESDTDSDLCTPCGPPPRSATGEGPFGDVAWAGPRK
# KCNQ2 pot baseline: recorded beside KCNQ2 pot, whose call it bears; B-score; compound at 10 µM; measured here: initial fluorescence intensity artifact check;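 brightness before thallium and not channel activity; 0 = typical well and far values either way flag optical interference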
# The depositor's hits bear a star.
SMILES,KCNQ2 pot,KCNQ2 pot baseline
COc1cc(OC)cc(C(=O)N2CCN(C(=O)c3cccnc3)CC2)c1,1.1,-0.38
O=C(CSc1nncc2ccccc12)Nc1ccccc1,0.14,-0.13
COC(=O)c1cccc(NC(=O)CCc2ccccc2)c1,1.2,0.75
O=C(Cn1c(-c2cscn2)nc2ccccc21)Nc1cc(F)ccc1F,0.21,-2.5
O=C(O)CSCC(=O)Nc1ccccc1SCCS(=O)(=O)c1ccc(Cl)cc1,0.1,-3.9
CNC(=O)COc1ccc(S(=O)(=O)Nc2ccc(OC)cc2)cc1,0.6,-0.67
O=C(O)c1cc(-c2ccc3ccccc3c2)nc2ccc(F)cc12,1,-1.8
NC(=O)CCCn1c(C(=O)c2ccc(Cl)cc2)c2ccc(C(F)(F)F)cc2[n+]1[O-],0.38,1.5
COc1ccc(CCNC(=O)c2ccc3c(SCC(=O)O)c4c(nc3c2)CCCC4)cc1OC,1.8,-2.3
Cc1cc(C)cc(OCC(O)Cn2nc(C)cc2C)c1 (stereo not given),2,-1.9
O=C(CSc1nnc2c(Cl)cc(Cl)cn12)NC1CCS(=O)(=O)C1 (stereo not given),0.32,-2.2
COc1ccc(CCNC(=O)c2cc(-c3cccs3)on2)cc1OC,0.42,-0.23
Cc1cccc(NC(=O)NCCN2C(=O)C3C4C=CC(C4)C3C2=O)c1 (stereo not given),1.1,0.27
CCOC(=O)c1ccc(NS(=O)(=O)c2c(C)[nH]c(C)c2C(=O)N2CCCCC2)cc1,0.61,0.03
O=C(O)c1ccccc1/C=N/NC(=O)C1CCCCC1,0.07,-1.6
O=C(Nc1ccc(Cl)cc1Cl)C1CCCO1 (stereo not given),1.3,-0.16
CC(C)=CC(=O)Nc1ccc2c(c1)OCO2,2.7,-1.1
N#CCCN1CCN(C(CNS(=O)(=O)c2ccc(Cl)cc2)c2ccccc2)CC1 (stereo not given),0.05,-0.05
Cn1c(CNC(=O)c2ccco2)nnc1SCC(=O)Nc1ccccc1Cl,1.2,-0.33
Cc1ccc(N2CC3=C(C2=O)C(c2ccccc2)NC(=O)N3C)cc1 (stereo not given),0.61,-0.93
O=C(COC(=O)c1ccc[nH]c1=O)Nc1ccc2c(c1)OC(F)(F)O2,0.45,1.9
COc1ccc(-n2c(C)c(C)c3c(NCCO)ncnc32)cc1,0.19,0.46
COc1ccc(OCCCC(=O)OC(C)C(=O)Nc2ccc(NC(C)=O)cc2)cc1 (stereo not given),0.97,0.17
Cc1cc(C)nc(-n2nc(C)cc2NC(=O)COC(=O)CCC(=O)c2cccs2)n1,0.32,0.01
Cc1nc(C(=O)NCCO)cc2c1[nH]c1ccccc12,0.25,2.7
# More compounds.
SMILES,KCNQ2 pot,KCNQ2 pot baseline
O=C(COC(=O)c1cccnc1Nc1ccccc1F)NCc1ccc2c(c1)OCO2,1.2,-1.9
CCN(CC(=O)Nc1c(F)cccc1F)C(=O)/C=C/c1ccc(OCC#N)c(OC)c1,1.8,0.09
O=C(c1ccco1)N1CCN(C(=O)C2Cc3ccccc3CN2S(=O)(=O)c2ccc(F)cc2)CC1 (stereo not given),1.5,-0.03
Cc1nn(-c2cccc(C(=O)O)c2)c(C)c1[N+](=O)[O-],2.8,-1.2
COc1ccccc1N(CC(=O)N/N=C/c1ccc(C(=O)O)cc1)S(=O)(=O)c1ccc(C)cc1,0.85,-1.5
O=C(Nc1ccccc1)c1c(F)cccc1F,0.55,0.89
CC(C)CC(NS(=O)(=O)c1ccccc1)C(=O)O (stereo not given),0.18,-0.81
CN(Cc1ccccc1)C(=O)c1[nH]cnc1C(=O)NCC(=O)OC(C)(C)C,0.6,0.15
NC[C@H]1O[C@H](O[C@H]2[C@H](O)[C@@H](O[C@H]3O[C@H](CO)[C@@H](O)[C@H](N)[C@H]3O)[C@H](N)C[C@@H]2N)[C@H](N)C[C@@H]1O,0.58,-0.04
CC(NC(=S)NC1CCC(C(C)(C)C)CC1)c1ccccc1 (stereo not given),2.4,-1.2
COCCNC(=O)C(c1ccc(C)o1)N(CC1CCCO1)C(=O)Cn1nnc2ccccc21 (stereo not given),1.7,1.6
COc1ccc(/C=C/C(=O)NC(=S)Nc2ccccn2)cc1,1.3,-1
NC(=O)c1c(NC(=O)C2CC=CCC2C(=O)O)sc2c1CCCCC2 (stereo not given),0.35,1.7
COc1ccc(OC)c(NC(=S)N2CCN(C(=O)C3CCCO3)CC2)c1 (stereo not given),0.3,1.1
CCOc1ccccc1C(=O)N(Cc1ccccc1)Cc1cc2cc3c(cc2[nH]c1=O)OCCO3,2,-1.3
CCOC(=O)N1CCN(S(=O)(=O)c2ccc3c(c2)SC(C)C(=O)N3)CC1 (stereo not given),1.6,3.2
CCOC(=O)Cn1c(-c2ccc(Cl)nc2)nc2ccccc21,0.18,0.05
COc1ccccc1NS(=O)(=O)c1cccc(C(=O)NCc2ccco2)c1,0.27,0.54
Cn1c(NNC(=O)C(c2ccccc2)c2ccccc2)cc(=O)n(C)c1=O,1.5,-0.04
CC(C)CC(NC(=O)C1CCCN1C(=O)[C@@H](C)NC(=O)OCc1ccccc1)C(=O)NCC(N)=O (stereo not given in full),0.11,-1.7
O=C(O)CS(=O)(=O)c1ccc(Oc2ccc(S(=O)(=O)CC(=O)O)cc2)cc1,1.4,0.84
COc1cc(/C=C/C(=O)OCC(=O)c2c(N)n(C)c(=O)n(C)c2=O)ccc1O,0.09,-3.4
CC(C)(C)OC(=O)N1CCC(CNC(=O)c2ccccc2)CC1,0.02,-0.57
Cc1cnccc1NC(=O)c1cccs1,1.3,-0.16
CCc1nnc(NC(=O)CN2CCN(Cc3cccc(F)c3)CC2)s1,1.5,-0.98

# Whole records, quoted from the list.
# Profile of `O=C(O)CS(=O)(=O)c1ccc(Oc2ccc(S(=O)(=O)CC(=O)O)cc2)cc1` = KCNQ2 pot = 1.4; KCNQ2 pot baseline = 0.84
# Profile of `O=C(Nc1ccccc1)c1c(F)cccc1F` = KCNQ2 pot = 0.55; KCNQ2 pot baseline = 0.89

# The results go on.
SMILES,KCNQ2 pot,KCNQ2 pot baseline
CCOc1cc(Cl)c(NC(C)=O)cc1OCC,0.91,0.67
CN(CCOc1ccccc1)C(=O)c1cc([N+](=O)[O-])cc([N+](=O)[O-])c1,0.05,0.07
COC(=O)c1ccsc1NC(=O)c1ccc(Cl)s1,0.01,0.65
c1ccc2c(CNc3ccc(CNc4ncn[nH]4)cc3)cccc2c1,1.2,-0.94
COc1ccc(N2CCN(C(=O)COC(=O)/C=C/c3ccc(C(F)(F)F)cc3)CC2)cc1,0.13,-0.14
c1ccc(NC2=NCCN2CCC2CCCC2)cc1,0.85,-0.02
CCc1ccc(-c2cc(C(=O)Nc3ccc(S(=O)(=O)NC(C)=O)cc3)c3ccccc3n2)cc1,0.57,0.27
COC(=O)c1ccc2nc(C)cc(Nc3ccccc3C)c2c1,0.2,0.4
CCCOC1CCCN(C(=O)c2ccc(OC)c(OC3CCN(C(C)C)CC3)c2)C1 (stereo not given),0.39,1.6
CCc1ccc(NC(=O)C2CCCN(S(=O)(=O)c3ccc4c(c3)CC(C)N4C(C)=O)C2)cc1 (stereo not given),0.13,0.2
CC1CCN(c2c(NCc3ccc(C(=O)NCc4cccnc4)cc3)c(=O)c2=O)CC1,1.4,2
Cc1ccc(NC(=O)[C@H](C)NC(=O)C2CCN(C(=O)[C@@H](N)C(C)C)CC2)cc1,0.23,0.74
CCOC(=O)C1=C(c2ccccc2)NC(=O)NC1c1ccc(OCC#N)c(OC)c1 (stereo not given),0.11,-0.27
COc1ccc(S(=O)(=O)N(CC(=O)Nc2ccccc2C(=O)N2CCOCC2)c2ccc(F)cc2)cc1,1.1,-0.93
CCOc1c2ccc(C(=O)NCc3ccc(C(F)(F)F)cc3C(F)(F)F)cc2nn1C,1.2,-1.6
N#Cc1c(NC(=O)CN2CCN(S(=O)(=O)c3ccc4c(c3)OCCO4)CC2)sc2c1CCC2,0.01,-1.4
Oc1[nH]c(=S)sc1C=C1N=c2ccccc2=N1,0.95,-0.9
O=S(=O)(NC1CCCCC1)c1ccc(-c2csnn2)s1,0.56,0.76
O=C(N/N=C/c1cccc(Oc2ccccc2)c1)c1ccccc1F,1.1,0
CCn1nnc(C(=O)O)c1C(=O)O,1,2.2
NS(=O)(=O)c1ccc(NC(=O)COC(=O)CCc2ccc(S(=O)(=O)N3CCOCC3)cc2)cc1,0.22,0.28
COc1cc2c(cc1OC)/C(=C/C(=O)N1CCOCC1)NC(C)(C)C2,1.3,-1.2
COc1ccc(OC)c(S(=O)(=O)Nc2cccc(-c3ccc4nncn4n3)c2)c1,1.6,0.84
O=C(CCCOc1ccc(Cl)cc1Cl)NCCc1ccccn1,1.1,1.1
CCN(C(=O)CSc1nnc2c3ccccc3n(CC)c2n1)C1CCS(=O)(=O)C1 (stereo not given),0.29,0.02
# (next part)
SMILES,KCNQ2 pot,KCNQ2 pot baseline
O=C(N/N=C\c1ccco1)c1cncc(Br)c1,1.1,-1.1
NC(=S)N/N=C/c1c(O)ccc2ccccc12,0.39,0.09
Cc1ccc(NC(=O)c2ccc(S(=O)(=O)N3CCCC3)cc2)nc1,0.04,2.9
CCCc1cc(=O)oc2cc(C)cc(OCC(=O)NCC(O)c3ccccc3)c12 (stereo not given),0.93,0.48
CCOC(=O)c1ccc(NC(=O)NCc2c(C)nn(CC)c2C)cc1,0.23,-0.01
O=C(NCc1ccco1)c1ccccc1Br,0.03,-0.07
COc1cc(OC)c(NS(=O)(=O)c2coc(C(N)=O)c2)cc1Cl,0.97,-0.58
O=C(Nc1ccc(Cl)cc1)Nc1cccc(C(=O)O)c1,1.1,-1.5
CC(=O)OCC(=O)[C@@]1(O)CCC2C3CCC4=CC(=O)CCC4(C)C3C(=O)CC21C (stereo not given in full),1.2,0.27
Cc1ccc(-c2n[nH]c(=O)c3ccccc23)cc1S(=O)(=O)Nc1ccccc1,0.03,0.63
O=C(NNc1ccc(Cl)nn1)c1ccc(Cl)cc1,0.06,1.6
O=C(CCSc1nnc2scc(-c3ccccc3)n12)Nc1nc(-c2ccccc2)ns1,1.5,2.3
COc1ccc(-c2nc(CSCC(=O)N3CCN(C)CC3)c(C)o2)cc1OC,0.92,0.17
O=C(O)C1=C[C@@H](c2coc3ccccc3c2=O)C[C@@H](OCCCCO)O1,0.04,-3.7
CCC(=O)Nc1nnc(Sc2ccc(N(C)C)cc2)s1,2,0.85
COCCCn1c(C)nnc1SCC(=O)Nc1cccc(C)c1,0.68,-0.24
CCCN1CN(Cc2ccccc2)CC2=C1CC(C)(C)CC2=O,1.1,0.07
COc1ccc(OC)c(C2CC(=O)c3c([nH]c(C(=O)OCC4CCCO4)c3C)C2)c1 (stereo not given),0.6,0.73
CC(C)C(=O)NC(C)C(c1cccs1)N1CCN(C)CC1 (stereo not given),0.28,0.07
Cc1ccc(C(=O)Nc2ncn[nH]2)cc1,0.15,0.08
CC1=CCC(C(=O)O)(C(=O)N/N=C/c2cccnc2)C(c2ccccc2)C1 (stereo not given),0.28,-0.8
O=C(NC1CC1)C1=C[C@H](c2csc3ccccc23)C[C@H](OCCCCO)O1,2.3,-0.85
CC(C)(C)C(=O)Cn1nc(Cl)nc1Cl,0.76,-0.61
N#CC(C(=O)C1CCCCC1)c1nc2ccccc2[nH]1 (stereo not given),0.67,-0.7
O=C(/C=C/c1ccccc1Cl)NC(=S)Nc1ccccc1C(=O)NC1CCCCC1,0.02,-0.33

# 5 of the compounds above, bar-delimited.
compound | KCNQ2 pot | KCNQ2 pot baseline
NC(=S)N/N=C/c1c(O)ccc2ccccc12 | 0.39 | 0.09
O=C(NNc1ccc(Cl)nn1)c1ccc(Cl)cc1 | 0.06 | 1.6
O=C(CCSc1nnc2scc(-c3ccccc3)n12)Nc1nc(-c2ccccc2)ns1 | 1.5 | 2.3
N#CC(C(=O)C1CCCCC1)c1nc2ccccc2[nH]1 (stereo not given) | 0.67 | -0.7
CCCN1CN(Cc2ccccc2)CC2=C1CC(C)(C)CC2=O | 1.1 | 0.07

# Other records.
SMILES,KCNQ2 pot,KCNQ2 pot baseline
COc1ccc(-n2nc3c(c2NC(=O)C2CCCC2)CS(=O)(=O)C3)cc1,0.01,0.92
O=C(C#Cc1cccc([N+](=O)[O-])c1)c1ccccc1,0.09,1.3
O=C(NCc1ccc(F)cc1)c1cnc2sccn2c1=O,1.4,-0.52
CC1CCC2C(C1)Nc1c(C(=O)O)cccc1C2(C)C (stereo not given),3,0.46
CC1(C)NC(=O)N(CCCCOc2cccc(C(F)(F)F)c2)C1=O,0.58,-1.4
Cc1cc(S(=O)(=O)Nc2c(C(=O)O)[nH]c3ccccc23)ccc1F,0.79,1.3
FC(F)(F)c1ccccc1NC(=S)N1CCCC1,0.84,-2.4
COc1ccc(N2C(=O)CC(N3CCN(Cc4ccc5c(c4)OCO5)CC3)C2=O)cc1 (stereo not given),2.5,0.81
CCn1c(SC)nnc1C1CCN(S(=O)(=O)c2ccc(OC)cc2)CC1,0.86,-0.63
CCC(CC)c1nnc(NS(=O)(=O)Cc2ccccc2)s1,0.76,-0.1
O=C(Nc1nnc(Cc2ccccc2)s1)c1ccco1,0.35,-0.55
COc1ccc(-c2cc3cc(C(=O)O)ccn3c2C(=O)c2ccccc2)cc1,0.96,0.14
C/C(=N\N1C(C)CCCC1C)c1ccccc1O (stereo not given),0.35,-0.47

# This is a subset; rates above refer to the full screens.
